Assay outcomes deposited in PubChem by National Center for Advancing Translational Sciences (NCATS).
ClpP mod = qHTS Assay for Activators of ClpP; ATP-dependent Clp protease proteolytic subunit (Bacillus subtilis (strain 168)), P80244; purified B. subtilis ClpP, FRET peptide cleavage, 20 min; Potency, µM (doses to about 57.5 µM), without a hit: at the top dose activity change, negative = active; 1.9% of 340,000 active; AID 651965, 2013; active = well fitted falling curve with a large enough effect; inconclusive = small, poorly fitted or top-dose-only effect; inactive = no such curve, though single readings can be large or run the other way; note: the source files actives as falling curves though it sought activators and does not explain the sign; nearly all actives have a fitted effect of over 65% in size; many hits overshoot -100%
Target sequence (P80244 whole entry, looked up): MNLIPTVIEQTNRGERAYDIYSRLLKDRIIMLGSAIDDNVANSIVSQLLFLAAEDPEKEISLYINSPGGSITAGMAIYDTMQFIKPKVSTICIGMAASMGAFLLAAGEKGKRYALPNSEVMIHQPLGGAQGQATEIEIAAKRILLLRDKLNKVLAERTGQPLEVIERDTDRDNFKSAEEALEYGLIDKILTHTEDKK
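Purified B. subtilis ClpP, 10 microg/mL final in Tris/HCl pH8 with KCl, BSA, glycerol and Tween-20, cleaved an Abz/nitrotyrosine-quenched decapeptide. Fluorescence (ex 320, em 430) was read at 0 and 20 min at room temperature. Delta was normalized to 5.8 microM ADEP and DMSO/no-enzyme controls.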
* hit, by the source's call; ? = inconclusive; & = joins results of further samples. Potency is the fitted concentration of half-maximal effect. Some of the compounds tested (hit frequency here may not be typical).

The first four compounds as a preview:
SMILES	ClpP mod
CCOc1ccc(OCC)c(NC(=O)CN(C)S(=O)(=O)c2ccc3[nH]c(=O)oc3c2)c1	0.0%
COc1ccccc1NC(=O)c1cnc(SCC(=O)N2CCCc3ccccc32)n(C)c1=O	40%
CCc1cccc(C)c1NC(=O)c1cc(CN2CCCC2)on1	-0.3%
CC(=O)c1ccc(N2CCN(S(=O)(=O)c3ccc4[nH]c5c(c4c3)CCCC5)CC2)cc1	-14%

Results (from the top)
SMILES	ClpP mod
CCOc1ccc(OCC)c(NC(=O)CN(C)S(=O)(=O)c2ccc3[nH]c(=O)oc3c2)c1	0.0%
COc1ccccc1NC(=O)c1cnc(SCC(=O)N2CCCc3ccccc32)n(C)c1=O	40%
CCc1cccc(C)c1NC(=O)c1cc(CN2CCCC2)on1	-0.3%
CC(=O)c1ccc(N2CCN(S(=O)(=O)c3ccc4[nH]c5c(c4c3)CCCC5)CC2)cc1	-14%
CC(=O)c1cccc(NC(=O)c2nc(-c3ccccc3)n(-c3ccccc3C)n2)c1	-2.3%
Cc1cc(C)cc(NC(=O)CSc2nc(-c3cccc(Cl)c3)nc3c2Cc2c(CO)cnc(C)c2O3)c1	0.2%
Cc1ccc(NC(=O)CCc2nnc3n(C)c(=O)c4sccc4n23)cc1C	-1.0%
COc1ccc(CCNC(=O)CCc2c(C)nc3c4cccnc4nn3c2C)cc1OC	?
CCC(Sc1nnc(-c2ccc(OC)cc2)c(-c2ccc(OC)cc2)n1)C(=O)NC1CCCCC1 (stereo unspecified)	1.2%
Cc1ccc2cc(CN(C)C(=O)c3cccc(Cl)c3)c(=O)[nH]c2c1	-24%
CCOC(=O)CSc1nc2ccc(NC(=O)c3cccc(F)c3)cc2s1	-5.3%
CCN1CCOC(=O)C1CC(=O)Nc1ccc(C(C)=O)cc1 (stereo unspecified)	-0.5%
Cc1c2cnn(CC(=O)N3CCN(c4ccccc4)CC3)c(=O)c2c(C)n1Cc1ccccc1Cl	-1.5%
CCSc1ncc(Cl)c(C(=O)Nc2sc3c(c2C(=O)NC)CCCC3)n1	-3.9%&-0.2%
O=C(Cn1c(=O)n(-c2ccccc2)c(=O)c2ccc(C(=O)NCc3ccc4c(c3)OCO4)cc21)Nc1ccc(F)cc1	-8.8%
Cc1nn(C)c2c1c(-c1ccccc1)cc(=O)n2Cc1c(F)cccc1Cl	-28%
Cc1ccccc1NC(=O)Nc1csc2c1CCCC2	0.4%
CCN(CC)c1cc2c(cc1F)c(=O)c(S(=O)(=O)c1ccccc1)cn2C	4.8%
CCc1ccccc1N1C(=O)CN(S(=O)(=O)CC)CC1(C)C(=O)NC1CCCCC1 (stereo unspecified)	-0.7%
COc1ccc(CNC(=O)C2CCN(c3nc4ccc(C)cc4[nH]3)CC2)cc1	-2.2%
CCCCc1ccc(-n2nc3cc(C)c(NC(=O)c4ccc(C#N)cc4F)cc3n2)cc1	-2.5%
Cc1cccc(C)c1NC(=O)Cn1c(=O)n(CCCS(=O)(=O)C2CCCCC2)c(=O)c2ccccc21	-1.8%
COc1cc(OC)c(NC(=O)c2c(C)oc3nc(C)nc(N4CCOCC4)c23)cc1Cl	-0.2%
Cc1ccc(-c2cc(C(=O)NCCc3ccccc3)c3c(-c4ccc(C)cc4)[nH]nc3n2)cc1	4.2%
Cn1cc(-c2cc3n(n2)CCC(=O)N3CC(=O)O)c2ccccc21	-7.3%
COc1ccc2c(c1)CCc1c(C(=O)Nc3c(C)nn(Cc4ccc(Cl)c(Cl)c4)c3C)noc1-2	-8.1%
O=C(Nc1ccc2nc(SCC(=O)N3CCc4ccccc43)sc2c1)c1cccc(Cl)c1	?
Cc1ccccc1Nc1nnc(-c2ccc(C)c(S(=O)(=O)N3CCOCC3)c2)c2ccccc12	0.5%
Cc1cc(=O)oc2cc(OCC(=O)Nc3ccc(O)c(C(=O)O)c3)ccc12	4.2%
O=C(CSc1nccn1Cc1ccc2c(c1)OCO2)Nc1ccccc1F	-0.1%
CNc1ccc(-c2nc(-c3ccccn3)no2)cc1[N+](=O)[O-]	0.2%
CCN(c1ccccc1)S(=O)(=O)c1nnc(NC(=O)c2ccccc2)s1	-14%
Cc1ccc(C)c(N2CCN(C(=O)c3ccc4[nH]c(C)c(C)c4c3)CC2)c1	-6.4%
COc1cc2nc(N3CCCN(C)CC3)nc(NC3CCN(C)CC3)c2cc1OC	4.3%
CC1=C(C(=O)Nc2cc(Cl)ccc2C)C2(CCCCC2)OC1=O	1.8%
COc1ccc(-n2c(=O)c3c(c4cc(OC)ccc4n3C)n(CC(=O)NCC3CCCO3)c2=O)cc1 (stereo unspecified)	3.8%
COc1ccccc1CC(=O)Nc1ccc2nc(N3CCC(C)CC3)cc(C)c2c1	4.3%
CCN(CC)C(=O)Cn1nnc2sc(-c3ccccc3)cc2c1=O	4.2%
Cc1ccc(-c2nn(CC(=O)NCc3ccccc3)c3c2cnc2ccc(F)cc23)cc1C	-3.6%
COc1ccc(NC(=O)c2sc3nc4n(c(=O)c3c2C)CCC4)cc1Cl	111%
Cn1cc(S(=O)(=O)N2CCCCC2)cc1C(=O)N1CCN(c2ccc(F)cc2)CC1	-0.2%
O=c1c2cc3c(nc2ncn1Cc1ccccc1F)CCCC3	-2.9%
CCc1ccc2c(c1)c(=O)c(S(=O)(=O)c1ccc(F)cc1)cn2CC(=O)Nc1ccc(C)cc1C	-18%
Clc1cccc(-n2ncc3c(N4CCCCC4)ncnc32)c1	-1.4%
COc1ccc(/C=C2\C=Cc3ccccc32)cc1	0.9%
CCOC(=O)c1c(C)[nH]c(C)c1S(=O)(=O)N(C)CC(=O)Nc1cc(Cl)ccc1OC	-1.3%
CCOC(=O)c1ccc(NC(=O)CSc2nc3cc4ccccc4cc3[nH]2)cc1	4.2%
O=C(NCc1ccccc1)c1cc2ccc3cccnc3c2[nH]1	28%

A draw from above in order of heavy-atom count, low to high:
SMILES	ClpP mod
COc1ccc(/C=C2\C=Cc3ccccc32)cc1	0.9%
O=c1c2cc3c(nc2ncn1Cc1ccccc1F)CCCC3	-2.9%
CCN(CC)C(=O)Cn1nnc2sc(-c3ccccc3)cc2c1=O	4.2%
COc1ccc(NC(=O)c2sc3nc4n(c(=O)c3c2C)CCC4)cc1Cl	111%
CCOC(=O)c1ccc(NC(=O)CSc2nc3cc4ccccc4cc3[nH]2)cc1	4.2%
Cn1cc(S(=O)(=O)N2CCCCC2)cc1C(=O)N1CCN(c2ccc(F)cc2)CC1	-0.2%
CCc1ccc2c(c1)c(=O)c(S(=O)(=O)c1ccc(F)cc1)cn2CC(=O)Nc1ccc(C)cc1C	-18%

Remaining list, next part.
SMILES	ClpP mod
O=C(CCCCn1c(=O)c2ccccc2n(Cc2ccc(F)cc2Cl)c1=O)NCCc1ccc(Cl)cc1	-1.5%
COc1cc2c(cc1OC)C(c1oc(-c3ccc(-c4cc(Cl)ccc4Cl)o3)cc1C)=NCC2	-11%
Cc1ccc(Cc2nc3ccccc3nc2SCC(=O)N2CCN(c3ccccc3)CC2)cc1	-5.0%
CCc1ccc(NCc2cc3ccc(OC)cc3n(CC(=O)Nc3ccc(C)c(Cl)c3)c2=O)cc1	8.3%
COc1ccccc1C(O)c1nccn1Cc1ccccc1 (stereo unspecified)	-4.1%
COc1ccc2c(c1)c1c(c(=O)n(-c3ccccc3C)c(=O)n1Cc1cccc(C(F)(F)F)c1)n2C	3.8%
CCc1ccc(NC(=O)CN2C(=O)CC(c3ccccc3)Sc3ccccc32)cc1 (stereo unspecified)	-4.6%
CCN(CC)CCCNC(=O)Cc1csc2nc(-c3ccc(Cl)cc3)cn12	-2.0%
CS(=O)(=O)c1ccc(/C=C2\C=Cc3ccccc32)cc1	-0.8%
O=C(CCC1N=C2c3ccccc3N=C(SCc3cccc(F)c3)N2C1=O)NCc1ccc(F)cc1 (stereo unspecified)	4.0%
Cc1cc(NC(=O)Cn2c(=O)nc(-c3ccccc3F)c3cc(Cl)ccc32)ccc1Br	-9.4%
COc1ccc(NC(=O)C2CCN(S(=O)(=O)c3c(C)noc3/C=C/c3ccc(C)cc3)CC2)cc1Cl	-24%
CCCS(=O)(=O)N1CC(=O)N(c2ccc(C)cc2)C(C)(C(=O)NC2CCCCCC2)C1 (stereo unspecified)	-0.6%
CC1CCN(C(=O)CSc2nc3c([nH]c4ccccc43)c(=O)n2-c2ccccc2)CC1	-2.3%
CC1=C(C(=O)Nc2ccc(C)cc2C)C(c2ccc(Br)cc2)n2ncc(C(=O)Nc3cccc(C)c3)c2N1 (stereo unspecified)	?
CCCNC(=O)C1CCN(c2ncnc3c2nc2n3CCCCC2)CC1	-1.3%
CCCc1nn2c(=O)cc(COC(=O)c3ccc(NC(=O)COc4ccccc4F)cc3)nc2s1	1.6%
COc1ccc(NC(=O)CSc2cn(CC(=O)N3CCCCC3)c3ccccc23)c(OC)c1	0.2%
O=C(COCc1cc(-c2cccs2)on1)NCc1ccc(Cl)cc1	-4.8%
CCC(=O)N1CCc2cc(S(=O)(=O)NCCC(=O)NCc3ccc(OC)cc3)ccc21	-1.9%
CCOC(=O)c1c(-c2ccc(C)cc2)csc1NC(=O)c1ccc(C(C)(C)C)cc1	-6.8%
CCn1nc(C)c(CCN(C)C(=O)Nc2cc(Cl)ccc2C)c1C	-0.2%
Cc1cc(C)c2c(=O)cc(C(=O)Nc3ccccc3Cl)oc2c1	-0.3%
Cc1ccc(NC(=O)Cn2c(=O)n(CC3CCC(C(=O)NC(C)C)CC3)c(=O)c3sccc32)cc1 (stereo unspecified)	-1.8%
CCOc1ccccc1NC(=O)Cn1cc(C(=O)c2ccc(Cl)cc2)c(=O)c2ccc(C)nc21	0.7%
CN(C)c1ccc(N=Nc2ccnc3ccccc23)cc1	-0.5%
COc1ccccc1NC(=O)c1ccc2[nH]c(C)cc(=O)c2c1	-14%
CSc1nn(CC(=O)Nc2ccc(C)cc2C)c(N)c1S(=O)(=O)c1ccc(Cl)cc1	-0.9%
CCN(CC)c1nc2ccccc2nc1C(=O)Nc1cc(OC)c(OC)c(OC)c1	-0.1%
CCOCCCNC(=O)C(c1ccc(Cl)cc1)N(Cc1cccs1)C(=O)c1ccc(NC(C)=O)cc1 (stereo unspecified)	-0.1%
Cc1ccccc1N1CCN(S(=O)(=O)c2nnc(NC(=O)c3ccc(Cl)cc3)s2)CC1	-3.8%
Cc1cccc(C)c1NC(=O)Cn1c(=O)cc(C)c2c(C)nn(-c3cccc(Cl)c3C)c21	-1.5%
CCOc1cc(-c2cc(C(=O)O)c3c(-c4ccccc4)[nH]nc3n2)ccc1O	-5.0%
Cc1ccc(Cn2c(CN3CCN(c4cccc(Cl)c4)CC3)nc3c2c(=O)n(C)c(=O)n3C)cc1	-1.3%
CC(C)c1ccc(NC(=O)CCNS(=O)(=O)c2ccc3c(c2)CCCC(=O)N3)cc1	-1.5%
CC(=O)c1ccc(NC(=O)CSc2cn(CC(=O)N3CCCCC3)c3ccccc23)cc1	-0.1%
CC(C)c1ccc(/C=C(\C#N)c2nc(-c3cc4ccccc4oc3=O)cs2)cc1	1.1%
COc1ccc(CNC(=O)CCc2c(C)c3ccc(OC)c(C)c3oc2=O)cc1OC	4.5%
COCCNC(=O)c1sc2ncccc2c1-n1c(C)ccc1C	-13%
COc1cc(/C=C/c2ccnc3ccccc23)ccc1N(C)C	0.5%
Cc1coc2cc3oc(=O)c(CC(=O)NCCc4ccccc4)c(C)c3cc12	-7.4%
Cc1cccc(C)c1NC(=O)CN(C)S(=O)(=O)c1ccc2[nH]c3c(c2c1)CCCC3	-10%
COc1ccc(NC(=O)CSc2nc(-c3ccc(OC)cc3)[nH]c2-c2ccc(F)cc2)cc1	-16%
COc1ccc(CNC(=O)C(=O)Nc2ccccc2OC)cc1	0.8%
Cc1ccc(C(=O)CC2(O)C(=O)N(Cc3ccccc3)c3ccc(Br)cc32)cc1 (stereo unspecified)	-1.8%
Cc1ccc(-c2nnc(Nc3cccc(Cl)c3)c3ccccc23)cc1S(=O)(=O)NCC1CCCO1 (stereo unspecified)	-22%
COc1cccc(NC(=O)Cn2c(=O)n(Cc3ccccc3)c(=O)c3ccccc32)c1	-20%
CCN(CC)C(=O)Cn1ncc2c([nH]c3ccc(C)cc32)c1=O	?
COc1ccc(-n2ccnc(NCCc3ccc(Cl)cc3)c2=O)cc1OC	-3.3%
O=C(Nc1nonc1-c1ccc(Cl)cc1)c1ccccc1F	-0.5%
Cc1ccccc1CNC(=O)c1ccc(CS(=O)Cc2ccc(Cl)cc2)o1 (stereo unspecified)	-0.3%
CC(=O)N1CCc2cc(CNC(=O)Cc3ccc(F)cc3)ccc21	-0.6%
COc1ccc(C2CC(=O)c3c([nH]c(C(=O)OC4CCCC4)c3C)C2)cc1OC (stereo unspecified)	-1.5%
COc1cc(C2c3c(-c4cc(C)ccc4O)n[nH]c3C(=O)N2Cc2cccnc2)cc(OC)c1OC (stereo unspecified)	0.5%
COc1ccc(NC(=O)c2c(NCc3ccc(C)o3)sc3c2CCC(C)C3)cc1 (stereo unspecified)	-2.5%
O=C(CSc1ncc2c(n1)-c1cc(Cl)ccc1N(Cc1ccccc1)S2(=O)=O)Nc1ccc(F)cc1F	4.3%
Cc1cc(C)c2c(CC(=O)Nc3ccc(S(=O)(=O)N4CCCC(C)C4)cc3)coc2c1 (stereo unspecified)	1.0%
O=C(NCCc1ccccc1)C1CCN(c2nc3ccccc3nc2C(F)(F)F)CC1	-3.6%
Cc1c(C(=O)N(C)C)sc2c1c(=O)n(-c1ccc(Cl)c(Cl)c1)c(=O)n2CC(=O)C(C)(C)C	0.0%
Cc1c(C(=O)N(Cc2ccccc2F)C2CCS(=O)(=O)C2)oc2ccccc12 (stereo unspecified)	1.1%
Cc1ccc(C(=O)CC2(O)C(=O)N(Cc3ccccc3F)c3ccccc32)cc1 (stereo unspecified)	-6.7%
